Screens as filed in PubChem BioAssay.
Mtb hypoxia rep: PubChem AID 1159583. M. tuberculosis hypoxia-regulated fluorescent reporter, fluorescence. fluorescence inhibition, % (concentration not given with the values). 0.1% of 300,000 active;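 active = 35 to 45% if threefold the growth effect, above 45% if 1.5-fold the growth effect; inactive = the rest, general growth blockers included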;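 note: wells of about 50 µL received 100 nL stock; 0% = vehicle wells and 100% = reference inhibitor wells; whole bacteria with a GFP reporter of the hypoxia response; strong numbers were not always called active; many hits fall short of the cut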
Autofluor counter: compound fluorescence in toxin protease inhibitor counterscreen. compound autofluorescence counterscreen, microsphere flow cytometry; stronger effect = higher value. fluorescence intensity (no concentration beside the values). 3.1% of 360,000 active. AID 624483;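 active = at least 3 SD above the mean of all compounds, about 16000 in these data; inconclusive = too few beads counted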;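 note: 100 nL of 1 mM stock went into each well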
RN4220 kill: growth inhibition of S. aureus RN4220, primary screen, OD600. 16 h. inhibition, % (no concentration beside the values). 0.33% of 330,000 active;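 active = z-score of -3 or lower and OD600 up to 0.18 on both plates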;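 note: plate controls were untreated cells for no effect and reference antibiotic for full effect; stock transfer was 100 nL into about 80 µL; one replicate is shown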
PrP 5UTR inh: inhibition of PrP 5' UTR reporter expression. cell-based PrP 5' UTR mRNA reporter, plate reader. inhibition, % (no concentration beside the values). 0.35% of 340,000 active. AID 488862, 2010;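 active = every replicate at 50% or more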;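 note: 0 = median of the neutral control wells; tested in H4 reporter cells; numbers are from one replicate; inactives centre near -14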
BJeLR viability: MLPCN primary cell-based screen for lethality selective to Ras in HRASV12 cells; BJeLR (HRASV12) viability, CellTiter-Glo ATP luminescence, 48 h; reference of the scale not given here; inhibition, % (no concentration beside the values); 0.17% of 300,000 active;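 active = replicate mean above 50%; inconclusive = above 50% but judged a plate artefact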;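 note: 50 nL library stock added to about 25 µL; numbers are from one replicate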
Sa ugtP lethal: growth inhibition of ugtP-null S. aureus, primary screen, RN4220 ugtP deletion, OD600. 16 h; some inactives read as strong as hits. growth inhibition, % (test concentration not listed). 0.54% of 330,000 active. AID 1259309, 2017;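 active = z-score under -3 and OD600 up to 0.15 on both plates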;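 note: plate controls were untreated wells for no effect and antibiotic for full effect; wells of about 80 µL received 100 nL stock; the first replicate is given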
Mtb hypoxia rep growth: second read-out of Mtb hypoxia rep, no call of its own (marks repeat the call); growth inhibition, %; measured here: M. tuberculosis growth (absorbance);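 0% = vehicle and 100% = reference antibiotic; read after six days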
* hit, by the source's call; ? = inconclusive; . = no result given.

Below each SMILES: Mtb hypoxia rep	Mtb hypoxia rep growth	Autofluor counter	RN4220 kill	PrP 5UTR inh	BJeLR viability	Sa ugtP lethal
- Cc1ccc(S(=O)(=O)NCCN2CCOCC2)s1
  14	10	6177	5.4	-8	-5	10
- COc1ccc(-c2sc3ccccc3c2-c2ccc(OCCN(C)C)cc2)cc1
  47*	30*	3477	101*	-4	.	100*
- CCn1ccc(C(=O)NCc2ccc3c(c2)OCO3)n1
  0	-6	4853	4.4	-24	-2	6
- CCc1ccc(NC(=O)CSc2nc(CSc3ccc(C)cc3)cc(=O)[nH]2)cc1
  10	-7	4109	7.9	-5	-3	12
- O=C(COC(=O)Cc1ccc(S(=O)(=O)N2CCOCC2)s1)Nc1ccc2c(c1)OCO2
  11	7	4066	3.6	-14	-2	0
- Cc1ccc(CN2CCN(/N=C/c3ccc(O)c(O)c3)CC2)cc1
  .	.	3261	.	-4	6	.
- COc1cc2c(cc1OC)CN(C(=O)c1cc(S(=O)(=O)N3CCOCC3)c(Cl)cc1Cl)CC2
  -6	4	6148	3.3	-20	5	5
- O=C(NC(=S)NCCC1=CCCCC1)c1cccnc1
  -3	-7	4499	8.4	-16	-7	6
- CCOc1ccc(OCCSc2ccc(S(=O)(=O)N3CCN(C)CC3)cn2)cc1
  -5	-6	4244	-2.8	-21	.	5
- Cc1cccc(NC(=O)C2CCN(C(=O)c3ccc(F)cc3)CC2)n1
  4	2	?	2.9	-6	-11	4
- Cc1onc(-c2c(F)cccc2Cl)c1C(=O)c1ccccc1
  -2	15	.	-0.7	-4	3	-2
- NC(=O)C1CCN(C(=O)CCC(=O)c2cccs2)CC1
  14	2	2963	4.6	-7	.	12
- O=C(O)Cc1sc(NN=Cc2ccncc2)nc1-c1ccccc1
  8	6	.	6.0	.	.	4
- COc1cc(OC)c2c(C)c(Cl)c(=O)oc2c1
  .	.	4117	1.4	0	1	1
- Cc1ccc(/C=N/NC(=O)CN(Cc2ccccc2)S(=O)(=O)c2ccc3c(c2)OCCO3)cc1
  .	.	7235	.	-1	13	.
- COC(=O)c1ccccc1NC(=O)/C=N/O
  .	.	2364	.	-7	0	.
- C=CCNC(=O)COc1ccc(S(=O)(=O)Nc2ccc(OCC)cc2)cc1
  .	.	2284	3.3	7	-2	4
- CCN1C(=O)/C(=C\c2ccncc2)SC1=Nc1ccc(C)c(C)c1
  -11	5	2178	-4.1	0	2	-2
- COc1ccc2c(c1OC)C(=O)N1N=C(c3ccc(Br)cc3)CC21 (stereo unspecified)
  16	14	2037	6.2	-33	-8	0
- CCOc1ccc(NS(=O)(=O)c2ccc(C(=O)NCC3(N4CCCCC4)CCCCC3)cc2)cc1
  -8	1	7197	-4.0	11	6	-3
- O=C1Cc2cc(NS(=O)(=O)c3ccc(Cl)cc3)cc3c2N1CCC3
  -2	4	.	2.7	-10	3	-2
- O=S(=O)(c1cnccc1N1CCN(/N=C/c2ccccc2)CC1)N1CCCCC1
  .	.	2547	.	-20	9	.
- CC1Oc2ccccc2C=C1C1C(=C(O)c2ccccc2)C(=O)C(=O)N1CCCN(C)C (stereo unspecified)
  11	7	.	3.4	.	.	2
- O=C(C1=C[C@H](c2ccccc2)C[C@H](OCc2ccc(CO)cc2)O1)N1CCN(Cc2ccc3c(c2)OCO3)CC1
  .	.	4259	.	6	10	.
- Nc1cccc(Nc2ncnc3ccccc23)c1
  4	2	4014	3.4	-2	-20	0
- Cc1ccc2c(c1)N(CCCC(=O)NCCCN1CCCCC1)C(=O)CO2
  15	10	5239	-12	-15	-1	-2
- CCC(C)Oc1nc2ccccc2nc1NS(=O)(=O)c1ccccc1 (stereo unspecified)
  -2	4	9687	9.6	-11	-5	-30
- COc1cc2c(cc1OC)C(C(=O)NCc1ccco1)C(c1cccs1)N(C)C2=O (stereo unspecified)
  -10	3	10256	-3.6	-7	2	-7
- CC(C(=O)OCC(=O)Nc1ccc(S(=O)(=O)N2CCCCC2)cc1)N1C(=O)c2ccccc2C1=O (stereo unspecified)
  .	.	3355	-0.9	-21	-3	9
- Cc1ccc2cc3c(NS(=O)(=O)c4cccc5nonc45)nn(CC(C)C)c3nc2c1
  -2	7	7336	31	-10	0	-6
- CCCC12CN(C(=O)c3ccc(OC)cc3)CC(C)(CN(C(=O)c3ccc(OC)cc3)C1)C2=O
  2	8	.	5.7	-32	3	3
- NS(=O)(=O)c1ccc(NS(=O)(=O)c2ccc(NC(=O)c3ccc(-c4ccccc4)cc3)cc2)cc1
  .	.	2702	.	-5	-3	.
- CCCCn1c(N)c(N(CC(C)C)C(=O)CCNC(=O)c2ccc(Cl)cc2)c(=O)[nH]c1=O
  11	1	6254	-2.3	-28	0	7
- O=C(c1cccc(S(=O)(=O)N2CCN(c3ccc(F)cc3)CC2)c1)N1CCCC(C(F)(F)F)C1 (stereo unspecified)
  -1	3	?	-1.3	5	8	-8
- C=CCNC(=O)COC(=O)c1ccc(Cl)c(S(N)(=O)=O)c1
  -6	-3	3247	3.6	-13	17	-8
- COc1ccc(-n2nc(C(=O)NCC(=O)NCCCN3CC(C)CC(C)C3)c3ccccc3c2=O)cc1OC (stereo unspecified)
  -2	0	3653	2.0	-49	2	-3
- O=C(COc1ccc([N+](=O)[O-])cc1)Nc1ccc(CN2CCOCC2)cc1
  9	3	2007	9.1	-13	-4	4
- COc1ccc(CNc2nccs2)cc1OC
  13	9	3303	-0.6	-17	-4	17
- CC(CC(O)C1OC1(C)C)C1=C2CC(O)C3[C@@]4(C)CCC(=O)C(C)(C)C4CC[C@]3(C)[C@@]2(C)CC1 (stereo partly specified)
  14	10	.	0.5	.	.	0
- COc1ccc(C2NC(=O)c3ccccc3N2)cc1OC (stereo unspecified)
  .	.	4806	-0.9	-21	6	-3
- CCc1ccc(-c2cc(C)no2)cc1S(=O)(=O)Nc1ccccn1
  10	-4	5820	3.4	-19	15	6
- C=CCOc1nc2c(c(=O)n(C)c(=O)n2C)n1Cc1ccc(Cl)cc1Cl
  6	-2	10491	1.4	-44	4	10
- CC1(C)Cc2ccccc2-c2[nH]c(=S)[nH]c(=O)c21
  5	1	4401	-0.8	-7	4	3
- Fc1ccccc1Cc1ccc(Cl)nn1
  19	13	4358	5.0	-1	8	3
- CCOC(=O)C(N)CSC1CC(=O)N(c2ccc(OC)cc2)C1=O (stereo unspecified)
  -3	-7	4055	1.7	-19	5	8
- Cc1ccc(/C=N/Nc2ccc(C(=O)O)cc2)o1
  .	.	3326	.	-75	0	.
- COc1ccc(Nc2ncc3c(n2)CC(c2ccc(C)cc2)CC3=O)cc1 (stereo unspecified)
  -2	-1	.	4.1	-12	-6	13
- COc1ccc(-c2sc3cc(OC)c(OC)cc3c2C#CCO)cc1
  -13	4	3586	2.5	36	.	-8
- COc1ccc(CNC(=O)c2ccncc2)cc1
  5	3	6365	4.1	-19	-6	1
- CCN(CC)C(=O)Cn1nnc(-c2ccc(C)o2)n1
  -4	1	9500	1.9	-1	-22	-2

Going on with the list:
Below each SMILES: Mtb hypoxia rep	Mtb hypoxia rep growth	Autofluor counter	RN4220 kill	PrP 5UTR inh	BJeLR viability	Sa ugtP lethal
- CCOC(=O)N1CCN(c2nc(-c3ccc(F)cc3)cs2)CC1
  3	0	4147	30	-16	6	7
- Cc1cc(NC(=O)Nc2cc(F)ccc2C)n(C)n1
  16	5	3476	4.5	-18	1	15
- CCn1cc(C(=O)Nc2cccc(C)c2)c(=O)c2ccc(C)nc21
  1	8	.	3.4	.	-13	4
- Cc1ccc(C2CC(=O)NC(SCCC(C)C)=C2C#N)cc1 (stereo unspecified)
  6	8	5537	8.7	-12	13	5
- CC(C)CCN1CC(C(=O)NCCC2=CCCCC2)CC1=O (stereo unspecified)
  0	-1	5631	0.3	-46	1	0
- FC(F)(F)c1ccc2c3n(nc2c1)CCN=C3c1ccc(Cl)cc1
  4	12	4054	-5.2	-21	0	3
- COC(=O)c1ccc(CC(=O)c2nc3ccccc3s2)cc1
  8	6	9591	6.9	-97	-4	-1
- C/C(=N\NC(=O)c1cccc(S(=O)(=O)Nc2ccccc2Cl)c1)c1ccco1
  .	.	1969	.	-14	-2	.
- CCN(C[C@H]1N[C@@](C)(C(=O)OC)[C@H]2C(=O)N(C)C(=O)[C@@H]12)C(=O)COc1ccccc1
  -1	-6	2945	1.0	-14	.	3
- Cc1ccc(/C(O)=C2\C(=O)C(=O)N(c3cc(C)on3)C2c2cccc(Br)c2)cc1 (stereo unspecified)
  .	.	3337	.	1	6	.

Some of the entries so far, bar-delimited:
mol | Mtb hypoxia rep | Mtb hypoxia rep growth | Autofluor counter | RN4220 kill | PrP 5UTR inh | BJeLR viability | Sa ugtP lethal
COC(=O)c1ccc(CC(=O)c2nc3ccccc3s2)cc1 | 8 | 6 | 9591 | 6.9 | -97 | -4 | -1
C/C(=N\NC(=O)c1cccc(S(=O)(=O)Nc2ccccc2Cl)c1)c1ccco1 | . | . | 1969 | . | -14 | -2 | .
CCN(C[C@H]1N[C@@](C)(C(=O)OC)[C@H]2C(=O)N(C)C(=O)[C@@H]12)C(=O)COc1ccccc1 | -1 | -6 | 2945 | 1.0 | -14 | . | 3
Cc1ccc(/C(O)=C2\C(=O)C(=O)N(c3cc(C)on3)C2c2cccc(Br)c2)cc1 (stereo unspecified) | . | . | 3337 | . | 1 | 6 | .

Going on with the list.
Below each SMILES: Mtb hypoxia rep	Mtb hypoxia rep growth	Autofluor counter	RN4220 kill	PrP 5UTR inh	BJeLR viability	Sa ugtP lethal
- O=C1OCc2cc(NC(=O)C34CC5CC(CC(C5)C3)C4)ccc21
  0	19	4380	-2.2	-15	4	-23
- CCC(C)N=C1CC(C)(C)CC(=O)/C1=C(/O)Cc1ccccc1 (stereo unspecified)
  .	.	2069	.	-31	11	.
- O=S(=O)(NC1CCCCC1N1CCN(c2ccc(F)cc2)CC1)c1ccc(Cl)cc1 (stereo unspecified)
  3	-2	4243	-1.6	-15	-8	-1
- Cc1ccccc1NC(C)C(=O)N/N=C/c1c[nH]c2ccccc12 (stereo unspecified)
  .	.	3312	.	-19	-2	.
- COc1ccc(S(=O)(=O)Nc2cc3c4c(c2)CCN4C(=O)CC3)cc1OC
  3	5	6249	2.8	-13	-8	-1
- O=C(Nc1ccccc1N1CCOCC1)c1ccc([N+](=O)[O-])cc1
  5	13	5743	4.3	-17	-7	1
- CCCC=C1CCCOC(C(=O)NCc2ccccn2)(C(F)(F)F)C1 (stereo unspecified)
  8	6	.	8.2	.	.	-12
- c1cnc2cc(-c3ccsc3)ncc2c1
  9	-1	2869	-13	-14	.	-6
- CCCOc1ccc(/C(O)=C2/C(=O)C(=O)N(CCN(C)C)C2c2ccncc2)cc1 (stereo unspecified)
  18	5	4943	6.5	-12	.	3
- CC(=O)N(c1cc(C)ccc1C)c1ccccc1[N+](=O)[O-]
  11	5	3706	4.8	-12	.	-3
- CC1CN(C(C)CO)C(=O)c2cccc(NC(=O)Nc3ccc4c(c3)OCO4)c2OC1CN(C)Cc1ccc(-c2ccccc2)cc1 (stereo unspecified)
  9	9	.	-5.5	.	.	-17
- CCC(C(=O)NCc1ccco1)N(C(=O)CNS(=O)(=O)c1ccccc1)c1ccc(F)cc1 (stereo unspecified)
  12	9	4194	1.7	-34	-7	6
- Cc1ccc(CCNS(=O)(=O)c2c(C)nc3sccn3c2=O)cc1
  9	4	6857	-5.8	-14	4	-4
- COc1ccc(OCCC(=O)Nc2cc(C)on2)cc1
  8	-5	8675	1.3	1	4	14
- COc1cccc(-n2nc(-c3ccnn3-c3ccc(C)cc3)c(=O)n(C)c2=O)c1
  .	.	2015	6.2	-17	2	8
- Cc1[nH]c2ccccc2c1C(=O)COC(=O)c1c(-c2c(F)cccc2Cl)noc1C
  7	6	2214	-6.5	-3	-2	-43
- COC(=O)c1cnn(-c2cc(Oc3ccccc3)ncn2)c1N
  7	9	2455	4.3	-67	-9	0
- CCOC(=O)Nc1n[nH]c(NC(=O)OCC)c1[N+](=O)[O-]
  11	13	3357	5.0	-10	2	6
- COc1ccccc1N1C(=O)C2C(C(=O)c3ccccc3)=NN(c3ccccc3)C2C1=O (stereo unspecified)
  6	10	4283	7.1	-26	2	1
- CCOc1c(O)ccc(C2NC(=O)N(C)C(C)=C2C(=O)OC)c1[N+](=O)[O-] (stereo unspecified)
  8	12	3988	-2.5	-26	5	2
- CC(C)N(Cc1nc(-c2ccc3c(c2)OCO3)no1)Cc1nccn1C
  0	11	2514	0.7	-22	-2	4
